Compound activity as filed in PubChem.
RE007 growth inh: less growth of the S. pombe RE007 Vpr strain; S. pombe RE007 Vpr strain, BacTiter-Glo ATP luminescence, 24 h; control for the full effect not named in the record; Potency, µM (series often up to 92.2 µM), inactives show at the highest dose activity change, negative = less growth; 360,000 compounds, 0.21% hits; active = well fitted falling curve with a large enough effect; inconclusive = small, poorly fitted or top-dose-only effect; inactive = no such curve, though single readings can be large or run the other way;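 note: % is set by controls: 0 for no effect and ±100 for the full control effect; nearly all actives have a fitted effect of over 50% in size; the assay follows cell death caused by Vpr and the record does not say whether a fall means rescue or toxicity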
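Fission yeast strain RE007, carrying one chromosomally integrated HIV-1 vpr copy, was seeded at OD 0.01 in PMG+AL medium with 23 nL pinned compound. After 24 h at 30 °C and 99% humidity, viability was read by BacTiter-Glo luminescence.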
SARS PLpro yeast: SARS-CoV PLP inhibition in yeast. S. cerevisiae expressing SARS-CoV PLpro, growth rescue; control for the full effect not named in the record. Potency, µM (series often up to 32.9 µM), for the others: top-dose activity, positive = growth rescue. 330,000 compounds, 0.19% hits; active means well fitted rising curve with a large enough effect; inconclusive means small, poorly fitted or top-dose-only effect; inactive means no such curve, though single readings can be large or run the other way; note: 0% is about no effect; nearly all actives have a fitted effect of over 55% in size; growth read by luminescence after 48 h
StopGo reporter: FMDV 2A StopGo reporter, luciferase signal; AID 1159524; human cells with a luciferase reporter of 2A StopGo recoding; control for the full effect not named in the record; 410,000 compounds, 1.2% hits; Potency, µM (titrated, usually from 57.9 µM), for the others: at the top dose signal change, negative = less light; active = well fitted falling curve with a large enough effect; inconclusive = small, poorly fitted or top-dose-only effect; inactive = no such curve, though single readings can be large or run the other way; tested in HEK293T cells; note: % is set by controls: 0 for no effect and ±100 for the full control effect; nearly all actives have a fitted effect of over 45% in size; luciferase light after 4 h
* = called active by the depositor; ? = inconclusive; & = joins results of further samples; [ ] = dose if it differs, or a comment. Potency is the fitted concentration of half-maximal effect. Not all compounds are listed. The share of hits here may be higher or lower than overall.

Below each SMILES – StopGo reporter, RE007 growth inh, SARS PLpro yeast
> Cc1ccc(C)c(N2N=C(C(=O)Nc3cccnc3)CCC2=O)c1
  -7%, 13%, -1%
> CCCCOc1ccc(C(=O)NCC(=O)N(C)Cc2nc3ccccc3c(=O)[nH]2)cc1
  -29%, -9%, 1%
> N#Cc1ccc(OCC(=O)OCC(=O)Nc2sccc2C(N)=O)cc1
  -7%, 5%, -5%
> CCOC(=O)C1CCCN(C(=O)CN2C(=O)c3ccccc3S2(=O)=O)C1 (stereo not drawn)
  41%[activator], -4%, 0%
> CCN(CC)C(=O)[C@H]1CC(CC(=O)NCCc2ccccn2)C(=O)N2CCc3c([nH]c4ccccc34)[C@]12C (stereo partly drawn)
  -18%, -7%, -4%
> NC(=O)COC(=O)c1cccc(S(=O)(=O)N2CCCc3ccccc32)c1
  9%, -9%, 0%
> COc1ccc(NC(=O)CC(C)c2ccccc2)cc1S(=O)(=O)N1CCOCC1 (stereo not drawn)
  -11%, 0%, 10%
> COC(=O)c1c(NC(=O)CN(C)CC(=O)Nc2ccc(C)cc2)sc2c1CCC(C)C2 (stereo not drawn)
  -2%, -13%, 2%
> O=c1c2ccccc2oc2ccc(-c3ccc4cc[nH]c4c3)cc12
  -14%, 5%, -7%
> O=C(COC(=O)c1cccnc1Cl)Nc1ccc(N2CCCCC2)cc1
  19%, -2%, 8%
> Cc1cc(C)n(CC(=O)Nc2cccc(C(F)(F)F)c2)n1
  17%, -8%, -2%
> O=C(Cn1[nH]c(=O)c2ccccc2c1=O)NCCN1C(=O)S/C(=C\c2ccccc2)C1=O
  -18%, -10%, -1%
> CN(Cc1ccccc1)C(=O)c1ccccc1C(=O)OCC(=O)N(Cc1ccccc1)C(C)(C)C
  -28%, -16%, -3%
> CN(CC(=O)Nc1ccc(Cl)c(Cl)c1)C(=O)C1CCCC1
  -17%, -11%, -4%
> C[C@H](CO)N1C[C@H](C)[C@@H](CN(C)S(=O)(=O)c2cccs2)Oc2c(NC(=O)NC3CCCCC3)cccc2C1=O
  -7%, -4%, 25%
> O=C(COC(=O)c1cc(Cl)ccc1[N+](=O)[O-])NC1CC1
  -18%, 1%, 5%
> Cc1ccnc(SCc2cn3c(C)cc(C)nc3n2)n1
  13%, -11%, 3%
> COC(=O)C1=C(c2ccc(OC)c(OC)c2)C[C@@H]2CC[C@H]1N2C(=O)NC(C)C
  -13%, 6%, 0%
> CC(C)[C@@H](CO)N(C)S(=O)(=O)c1ccccc1Br
  -18%, -1%, 7%
> Cc1ccc(OCC(=O)N2CCN(S(=O)(=O)c3ccc4c(c3)OCCO4)CC2)c(C)c1
  -27%, -16%, 3%
> CC(=O)Nc1ccc(S(=O)(=O)NCCC(=O)NC(C)c2cccs2)cc1 (stereo not drawn)
  -4%, 0%, 2%
> CC(NC=C1C(=O)OC(C)(C)OC1=O)C(=O)O (stereo not drawn)
  -1%, 22%, -5%
> Cc1ccc(NC(=O)COc2ccc(Br)cc2CO)cc1S(=O)(=O)N1CCOCC1
  ?, -2%, 0%
> COCCNC(=S)Nc1ccccc1Cc1ccccc1
  -1%, -1%, 1%
> CC(C)(C)C1CCC(=NNC(=O)C2COc3ccccc3O2)CC1 (stereo not drawn)
  -8%, -1%, -12%
> COc1ccc(-c2nn(-c3ccccc3)cc2CNC[C@H]2O[C@@H](n3cnc4c(N)ncnc43)[C@H](O)[C@@H]2O)cc1
  -19%, -2%, -2%
> Cc1cc(C)cc(OCC(=O)Nc2cccc(S(=O)(=O)NC3=NCCC3)c2)c1
  5%, 12%, -6%
> O=C1C=C(c2cc(C(F)(F)F)cc(C(F)(F)F)c2)C[C@@H](c2ccc(Cl)cc2)C1
  -25%, 5%, -1%
> COc1ccc(CCNc2nc(=S)[nH]c3cc(OC)c(OC)cc23)cc1OC
  ?, 0%, 2%
> COc1ccc(C(NC(=O)CN2C(=O)NC3(CCc4ccccc43)C2=O)c2ccccc2)cc1 (stereo not drawn)
  -9%, 7%, -2%
> O=C1C=C(c2cccc3c2sc2ccccc23)C[C@@H](c2ccc(Cl)cc2)C1
  -22%, -11%, 2%
> COC(=O)C1=C(c2ccc(F)cc2OCc2ccccc2)C[C@@H]2CC[C@H]1N2C
  -16%, -1%, -2%
> CC1(C)CC(=O)C(N=Nc2cc(C(F)(F)F)ccc2Cl)=C(O)C1
  -5%, 12%, 1%
> CCC1(c2ccccc2)NC(=O)N(CC(=O)Nc2cc(Cl)ccc2N2CCN(C)CC2)C1=O (stereo not drawn)
  -16%, -20%, -5%
> COc1ccccc1-n1nnnc1SCC(=O)N(C)C1CCS(=O)(=O)C1 (stereo not drawn)
  -3%, 3%, 0%
> CC(=O)c1cccc(NC(=O)c2ccc(S(=O)(=O)N3CC(C)OC(C)C3)cc2)c1 (stereo not drawn)
  ?, 1%, 2%
> C[C@@H]1[C@H](O)C[C@@]23COC(=O)C2=CCC[C@@H]3[C@@]1(C)CC/C(=C/CO)CO
  -7%, -4%, -2%
> COc1ccc(S(=O)(=O)N2CCOCC2)cc1NC(=O)COC(=O)C1CC1C (stereo not drawn)
  -3%, 1%, 2%
> Cc1cccc(C)c1NC(=O)CNC(=O)CNC(=O)Cc1cccc2ccccc12
  -1%, -11%, -4%
> Cc1cc(Cn2nc(C(=O)NCc3cccc(Br)c3)cc2-c2ccccc2)on1
  0%, 24%, 2%
> CC(=O)Nc1ccc(S(=O)(=O)N(C)CC(=O)NNc2c(F)c(F)cc(F)c2F)cc1
  0%, 8%, -1%
> COc1ccc(OC)c(/C=C/C(=O)N2CCN(S(=O)(=O)c3cc(C)ccc3C)CC2)c1
  ?, -9%, 5%
> O=C(O)CCCC(=O)N1CCc2cc(S(=O)(=O)NCc3ccc(F)cc3)ccc21
  30%, -24%, 2%
> NS(=O)(=O)c1ccc(CNC(=O)c2ccc3c(c2)OCO3)cc1
  3%, 12%, 1%
> CN(CC(=O)NCCCn1ccnc1)S(=O)(=O)c1ccc(Cl)cc1
  -16%, 6%, -1%
> CCN1C(=O)[C@H]2[C@@H](c3ccc(-c4ccc(Cl)c(Cl)c4)c(OC)c3)N[C@@](Cc3ccccc3)(C(=O)OC)[C@H]2C1=O
  -23%, 1%, -6%
> CC1Nc2ncnc(N3CCN(c4ccccc4)CC3)c2N(Cc2ccc(Br)cc2)C1=O (stereo not drawn)
  -23%, 7%, -9%
> CN(C)CCCNC(=O)C[C@H]1C[C@H](C(=O)N2CCCCC2)[C@@]2(CCc3ccccc3)c3[nH]c4ccc(Cl)cc4c3CCN2C1=O
  ?, 1%, -11%
> O=C1ON=C(c2ccccc2)/C1=C/c1cccnc1
  4%, 10%, 0%
> CC1CCCC(=NNC(=O)C2COc3ccccc3O2)C1 (stereo not drawn)
  -6%, -9%, -6%
> COc1ccc(SC[C@H](C)CN2CC[C@H](C)CCC2=O)cc1
  ?, 18%, -2%
> C[C@H](NS(=O)(=O)c1c(Cl)cccc1Cl)C(=O)NNC(=O)COc1ccccc1F
  -21%, -12%, 0%
> COc1ccc(CC(=O)Nc2ccc(S(=O)(=O)N(C)C3CCN(C)CC3)cc2)cc1
  -16%, -4%, -35%
> O=C(C[C@H]1C/C=C\CCC(=O)OC[C@H]2CCCN2C1=O)NCCO
  -24%, 14%, 1%
> CN(CC(=O)Nc1cccc(S(=O)(=O)NC2=NCCC2)c1)Cc1ccccc1Cl
  26%, 2%, 1%
> NS(=O)(=O)c1cccc(NC(=O)COC(=O)Cc2n[nH]c(=O)c3ccccc23)c1
  -6%, 1%, 2%
> O=C(CN1C(=O)C2CCCCN2C(=O)c2ccccc21)Nc1ccc(F)cc1 (stereo not drawn)
  -8%, 1%, -1%
> O=C(OC1CCOC1=O)c1ccc(Cl)c(S(=O)(=O)N2CCOCC2)c1 (stereo not drawn)
  -13%, 7%, 13%
> O=C1[C@@H](Oc2ccccc2)[C@@H](c2ccccc2)N1c1ccccc1
  -20%, -13%, 4%
> Cc1ccc(S(=O)(=O)N2[C@@H](c3ccc(C(C)C)cc3)C(C(=O)O)=C[C@H]2C(C)(C)C)cc1
  -7%, 0%, 3%

Fetched one by one from the list above, 4 records:
Below each SMILES – StopGo reporter, RE007 growth inh, SARS PLpro yeast
> O=C1[C@@H](Oc2ccccc2)[C@@H](c2ccccc2)N1c1ccccc1
  -20%, -13%, 4%
> CN(C)CCCNC(=O)C[C@H]1C[C@H](C(=O)N2CCCCC2)[C@@]2(CCc3ccccc3)c3[nH]c4ccc(Cl)cc4c3CCN2C1=O
  ?, 1%, -11%
> CC1CCCC(=NNC(=O)C2COc3ccccc3O2)C1 (stereo not drawn)
  -6%, -9%, -6%
> NS(=O)(=O)c1cccc(NC(=O)COC(=O)Cc2n[nH]c(=O)c3ccccc23)c1
  -6%, 1%, 2%

Next part:
Below each SMILES – StopGo reporter, RE007 growth inh, SARS PLpro yeast
> CC(C)CC1Nc2ncnc(N3CCN(c4ccccc4)CC3)c2N(Cc2ccccc2)C1=O (stereo not drawn)
  -21%&0%, -4%&-5%, 5%
> O=c1cc(-c2ccsc2)oc2ccc(-c3ccc4cc[nH]c4c3)cc12
  50%[activator], 12%, 3%
> O=C(CN1C(=O)C2CC=CCC2C1=O)Nc1nc(-c2ccc(F)cc2)cs1 (stereo not drawn)
  -25%, 4%, -3%
> CC[C@]12c3[nH]c4ccccc4c3CCN1C(=O)C(CC(=O)NCC13CC4CC(CC(C4)C1)C3)C[C@@H]2C(=O)N1CCN(C(=O)c2ccco2)CC1 (stereo partly drawn)
  ?, -7%, -3%
> O=C(NCc1ccccc1F)c1ccc(S(=O)(=O)N2CCCCCC2)cc1
  -8%, -3%, 4%
> Cc1c(NC(=O)c2ccc(S(=O)(=O)N(C)C)cc2)cccc1-n1cnnn1
  -10%, 6%, -6%
> CCN(CC)C(=O)Cn1cc(C(=O)C(=O)NCCc2ccc(S(N)(=O)=O)cc2)c2ccccc21
  2%, 4%, 0%
> C=CCn1c(=S)[nH]c2cc(C(=O)NCCc3ccc(S(N)(=O)=O)cc3)ccc2c1=O
  -13%, 6%, -2%
> COc1ccc2sc(-c3ccc(S(C)(=O)=O)cc3)c(C(=O)NCCCN3CCCC3=O)c2c1
  -2%, 9%, 7%
> CCOc1cc(C#N)ccc1OCC(=O)N1CCN(C(=O)c2cccs2)CC1
  -2%, 12%, 1%
> COc1ccc(N(Cc2ccccc2)C(=O)OC(C)(C)C)c(C(=O)N(C)OC)c1
  -27%, -10%, 1%
> CC(C)(C)NC(=S)NNC(=O)c1cccc(Br)c1
  22%, 0%, 11%
> CN(CC(=O)NCC(=O)Nc1ccc(F)cc1)C1CCS(=O)(=O)C1 (stereo not drawn)
  4%, 5%, -1%
> Cc1ccc(C(=O)c2c3ccc(C(F)(F)F)cc3[n+]([O-])n2CCCC(N)=O)cc1
  -2%, -11%, 1%
> CCCn1c(N)c(C(=O)CSc2nnc(-c3ccoc3C)n2C)c(=O)n(C)c1=O
  -30%, 1%, 11%
> N#Cc1cccc(NC(=O)COC(=O)Cn2nc(-c3ccccc3)oc2=O)c1
  -11%, 0%, 1%
> CCN(Cc1nc2ccccc2c(=O)[nH]1)C(=O)c1cc(C2CC2)nn1-c1ccccc1
  0%, 2%, 15%
> Cc1c(NC(=O)C(C)OC(=O)c2ccc([N+](=O)[O-])s2)c(=O)n(-c2ccccc2)n1C (stereo not drawn)
  -17%, -6%, 0%
> Cc1cc(N2CCN(C)CC2)nc2ccc(NC(=S)N3CCN(c4ccc(F)cc4)CC3)cc12
  20%, 6%, 2%
> O=C(COc1ccc(F)cc1Br)NCC1COc2ccccc2O1 (stereo not drawn)
  -19%, -14%, -17%
> O=C(Nc1cccc(S(=O)(=O)N2CCCCC2)c1)C1CCCC1
  16%, 2%, 3%
> C[C@H](CO)N1C[C@H](C)[C@@H](CN(C)S(=O)(=O)c2ccc(F)cc2)Oc2ccc(NC(=O)NC3CCCCC3)cc2C1=O
  0%, 0%, -1%
> O=C(COC(=O)c1ccc(OC(F)F)cc1)NCc1cccs1
  6%, -5%, -2%
> O=C(Cn1[nH]c(=O)c2ccccc2c1=O)N1CCN(S(=O)(=O)c2ccc(Cl)cc2)CC1
  -25%, 1%, -2%
> C[C@H]1CN=C(N(C)C)N1CC1CCCC1
  -11%, 0%, -1%
> COc1ccc(NC(C)=O)cc1NC(=O)c1ccc2ccccc2c1
  3%, -2%, -3%
> Cc1cccc(N2CCN(C(=S)Nc3ccc4nc(N5CCN(C)CC5)cc(C)c4c3)CC2)c1C
  3%, -13%, 3%
> CC1CCCC(C)N1C(=O)COC(=O)CCC(=O)c1ccc(F)cc1 (stereo not drawn)
  -9%, 5%, -1%
> O=C(CC1C[C@H](C(=O)N2CCCCC2)[C@@]2(CCc3ccccc3)c3[nH]c4ccccc4c3CCN2C1=O)NCc1cccc(C(F)(F)F)c1 (stereo partly drawn)
  -3%, 12%, 0%
> Cc1ccc(NC(=O)Cn2c(=O)cnc3ccccc32)cc1S(=O)(=O)N1CCCCC1
  ?, -18%, -17%
